From PubChem BioAssay
MARV entry inh: qHTS for inhibitors of binding or entry into cells for Marburg Virus; Marburg virus pseudotyped entry inhibition, cell reporter; control for the full effect not named in the record; about a third of the inactives were read at about 46 µM; Potency, µM (top dose mostly 37.8 µM), for inactives: top-dose activity change, negative = inhibition, most hits filed as inhibitors; 300,000 tested, 1.8% active; AID 540276, 2011; active = well fitted inhibition curve with a large enough effect; inconclusive = small, poorly fitted or top-dose-only effect, or effect the other way; inactive = flat fitted curve, though single readings scatter; tested in HEK293 cells; about a fifth of its hits are not listed in these tables; note: % is set by controls: 0 for no effect and ±100 for the full control effect; luciferase read-out
Cruzain noTriton: qHTS Assay for Promiscuous and Specific Inhibitors of Cruzain (without detergent). Cruzipain (Trypanosoma cruzi), P25779. purified cruzain, Z-FR-AMC fluorescence, no detergent. Potency, µM, without a hit: max response, negative = inhibition, usual class: inhibitors. 200,000 tested, 2.3% active; active = well fitted curve in the direction sought with a large enough effect; inconclusive = small, poorly fitted or top-dose-only effect, or another doubt; inactive = no such curve, though single readings can be large; an effect the other way counts as inactive or inconclusive;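 note: plate controls were enzyme without inhibitor for no effect and buffer without enzyme for full effect; nearly all actives have a fitted effect of over 40% in size; top concentration of the series not given in the record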
Target sequence (P25779 123-467 limits assumed): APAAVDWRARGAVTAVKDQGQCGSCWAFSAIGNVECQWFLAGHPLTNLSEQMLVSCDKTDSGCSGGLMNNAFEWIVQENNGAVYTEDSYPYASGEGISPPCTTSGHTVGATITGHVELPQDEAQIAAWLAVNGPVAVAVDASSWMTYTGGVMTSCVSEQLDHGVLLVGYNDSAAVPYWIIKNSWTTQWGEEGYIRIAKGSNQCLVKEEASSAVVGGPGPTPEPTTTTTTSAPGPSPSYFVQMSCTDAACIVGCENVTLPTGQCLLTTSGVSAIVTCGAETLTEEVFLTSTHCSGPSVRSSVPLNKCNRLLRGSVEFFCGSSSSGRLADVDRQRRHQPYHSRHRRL
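Purified cruzain at 1.5 nM, pre-incubated 15 min with compound at room temperature in 100 mM sodium acetate pH 5.5, 5 mM DTT, 0.00005% Triton X-100. Reaction started with 2 uM Z-FR-AMC; AMC fluorescence increase over 60 s gives rate.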
2A StopGo: High Throughput Screening for Foot and Mouth Disease Virus Antivirals. human cells with a luciferase reporter of 2A StopGo recoding; control for the full effect not named in the record. Potency, µM (doses to about 57.9 µM), without a hit: top-dose signal change, negative = less light. 410,000 tested, 1.2% active; active = well fitted falling curve with a large enough effect; inconclusive = small, poorly fitted or top-dose-only effect; inactive = no such curve, though single readings can be large or run the other way; tested in HEK293T cells; note: % is set by controls: 0 for no effect and ±100 for the full control effect; nearly all actives have a fitted effect of over 45% in size; luciferase light after 4 h
Lassa entry inh: qHTS for Inhibitors of binding or entry into cells for Lassa Virus | Lassa virus pseudotype entry inhibition, cell reporter; control for the full effect not named in the record | Potency, µM (highest dose often 37.9 µM), inactives show top-dose activity change, negative = inhibition, usual class: inhibitors | 300,000 tested, 1.2% active; active means well fitted inhibition curve with a large enough effect; inconclusive means small, poorly fitted or top-dose-only effect, or effect the other way; inactive means flat fitted curve, though single readings scatter; tested in HEK293 cells; note: % is set by controls: 0 for no effect and ±100 for the full control effect; nearly all actives have a fitted effect of over 50% in size; luciferase read-out
Cruzain Triton: qHTS Assay for Promiscuous and Specific Inhibitors of Cruzain (with detergent) | 200,000 tested, 0.43% active | purified cruzain, Z-FR-AMC fluorescence, 0.01% Triton | Cruzipain (Trypanosoma cruzi), P25779 | Potency, µM, inactives show max response, negative = inhibition, most hits filed as inhibitors; active = well fitted curve in the direction sought with a large enough effect; inconclusive = small, poorly fitted or top-dose-only effect, or another doubt; inactive = no such curve, though single readings can be large; an effect the other way counts as inactive or inconclusive;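 note: plate controls were neutral wells for no effect and buffer without enzyme for full effect; nearly all actives have a fitted effect of over 40% in size; top concentration of the series not given in the record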
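Compounds were screened in titration against cruzain (1.5 nM) with 0.01% Triton X-100 to counter colloidal aggregation. Activity was the AMC fluorescence increase over 60 s after adding 2 uM Z-FR-AMC at pH 5.5.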
NS1 inh: qHTS Assay for Inhibitors of Influenza NS1 Protein Function | AID 2326, 2010 | S. cerevisiae slowed by influenza A NS1, growth recovery by OD600 | Potency, µM (highest dose often 46.1 µM), for inactives: at the top dose activity, positive = more growth | 270,000 tested, 0.4% active; note: actives are rising curves; nearly all actives have a fitted effect of over 50% in size
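Read-out: OD600 growth recovery of NS1-expressing budding yeast. Cells grown overnight at 30C in -URA glucose medium, washed, resuspended and diluted 1:100 in 2% galactose assay medium, pH 6.0. Same strain lacking NS1 served as positive control.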
SARS PLpro yeast: qHTS of Yeast-based Assay for SARS-CoV PLP; AID 485353, 2010; S. cerevisiae expressing SARS-CoV PLpro, growth rescue; control for the full effect not named in the record; 330,000 tested, 0.19% active; Potency, µM (series often up to 32.9 µM), for inactives: at the top dose activity, positive = growth rescue; note: 0% is about no effect; nearly all actives have a fitted effect of over 55% in size; growth read by luminescence after 48 h
RE007 growth inh: qHTS Assay for Inhibitors of the HIV-1 protein Vpr; S. pombe RE007 Vpr strain, BacTiter-Glo ATP luminescence, 24 h; control for the full effect not named in the record; Potency, µM (doses to about 92.2 µM), for the others: at the top dose activity change, negative = less growth; 360,000 tested, 0.21% active; AID 651644, 2012; active = well fitted falling curve with a large enough effect; inconclusive = small, poorly fitted or top-dose-only effect; inactive = no such curve, though single readings can be large or run the other way;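 note: % is set by controls: 0 for no effect and ±100 for the full control effect; nearly all actives have a fitted effect of over 50% in size; the assay follows cell death caused by Vpr and the record does not say whether a fall means rescue or toxicity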
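Fission yeast strain RE007, carrying one chromosomally integrated HIV-1 vpr copy, was seeded at OD 0.01 in PMG+AL medium with 23 nL pinned compound. After 24 h at 30 °C and 99% humidity, viability was read by BacTiter-Glo luminescence.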
* = called active by the depositor; ? = inconclusive; . = not tested or not shown; & = joins results of further samples; [ ] = dose if it differs, or a comment. Unless noted, calls come from the whole dose curve; as a rule, active means well fitted rising curve with a large enough effect; inconclusive means small, poorly fitted or top-dose-only effect; inactive means no such curve, though single readings can be large or run the other way. Potency is the fitted concentration of half-maximal effect. Rows are unselected, and some 4.7% of all compounds hit somewhere here.

SMILES,MARV entry inh,Cruzain noTriton,2A StopGo,Lassa entry inh,Cruzain Triton,NS1 inh,SARS PLpro yeast,RE007 growth inh
CCOc1ccccc1NC(=O)N1CCCC1C(=O)NCc1cccs1 (stereo unspecified),-36%[46.1 µM],.,1%,-4%[46.1 µM],.,11%,1%,8%
CC1=C([N+](=O)[O-])C(c2ccc(Cl)cc2)NC(=O)N1C (stereo unspecified),6%[46.1 µM],.,-9%,8%[46.1 µM],.,18%,4%,-29%
CCC(=O)Nc1cc(Cl)ccc1N1CCN(C(=O)CC)CC1,16%,3%,-14%,-4%,2.1%,2%,6%,5%
CN(C)N=Nc1ccc(S(=O)(=O)/N=C(\O)c2ccccc2)cc1,.,.,13%,.,.,?,20%,1%
O=C(Cn1cnc2c(nnn2Cc2ccc(F)cc2)c1=O)NCC1CCCO1 (stereo unspecified),6%,6%,7%,-1%,-1.7%,9%,19%,6%
CC1Cn2c(nnc2-c2cccs2)S1 (stereo unspecified),17%,.,.,18%,.,4%,.,7%
CC(=NCCCO)c1c(O)n(Cc2ccccc2)c(=O)[nH]c1=O,-5%,1%,0%,-6%,-0.7%,-5%,8%,-9%
CCOC(=O)N1CCN(C(=O)c2ccccc2Oc2ccccc2)CC1,6%,5%,-6%,?,1.8%,-18%,-20%,-11%
Nc1cc(Cl)c(N)cc1Cl,1%,1%,19%,2%,-0.2%,-10%,8%,5%
O=C(N/N=C/C=C\c1ccccc1[N+](=O)[O-])c1cc(-c2ccccc2)nc2ccccc12,?,?,3%,2%,-4.0%,7.1µM*,-1%,12%
O=C(NCCCCc1ccccc1)c1cccc([N+](=O)[O-])c1,.,.,-22%,.,.,-36%,-2%,-14%
O=C(O)C(c1ccccc1)N1C(=O)/C(=C\c2ccc(-c3ccccc3Cl)o2)SC1=S (stereo unspecified),-4%,.,?,2%,.,-4%,0%,-10%
Cc1ccnc(N2C(=O)c3ccccc3C2Nc2ccccc2Cl)c1 (stereo unspecified),.,-2%,-20%,.,-5.3%,-123%,-12%,-16%
O=C(c1ccccc1)C(C(=O)N1CCc2ccccc2C1)n1ccccc1=O (stereo unspecified),-7%,7%,-3%,-10%,0.7%,-4%,5%,3%
Cc1ccc(S(=O)(=O)N(CC(=O)Nc2cccc(C(F)(F)F)c2)C(=O)N2CCN(C)CC2)cc1,-2%,.,-1%,29%,.,.,3%,-9%
CNC(=O)C(C#N)(Cc1cc(C(C)=O)ccc1OC)Cc1cc(C(C)=O)ccc1OC,12%[46.1 µM],.,0%,.,.,3%,7%,-10%
C=CCOc1cccc(C2C(C(=O)c3ccco3)=C(O)C(=O)N2Cc2ccco2)c1 (stereo unspecified),-1%[46.1 µM],.,64%[activator],.,.,8%,-5%,-2%
CC(=O)N=c1sccn1CC(O)c1ccc(Br)cc1 (stereo unspecified),-28%[46.1 µM],.,-27%,0%,.,11%,19%,-16%
O=C(NCC(c1cccnc1)N1CCN(c2ccccc2F)CC1)C(=O)Nc1ccc(F)cc1F (stereo unspecified),.,5%,-5%,-3%[46.1 µM],-4.2%,.,.,.
Cc1ccc2c(c1)N(CCCC(=O)NCc1ccc3c(c1)OCO3)C(=O)CO2,10%,17%,?,1%,0.7%,-34%,-4%,-14%
Cc1cc(C)n(S(=O)(=O)c2ccccc2[N+](=O)[O-])n1,0%[46.1 µM],.,-21%,1%[46.1 µM],.,-15%,-2%,6%
CCCCN(C(=O)CNC(=O)c1cccs1)C(C(=O)NC1CCCC1)c1ccncc1 (stereo unspecified),-6%[46.1 µM],.,-9%,-8%[46.1 µM],.,-3%,0%,-1%
COc1ccc(C)cc1NC(=O)Cn1c(=O)oc2ccccc21,-3%[46.1 µM],.,-12%,3%[46.1 µM],.,3%,4%,-22%
O=C(/C=C/c1cccc2ccccc12)NCCC1=CCCCC1,14%,-4%,19%,3%,-2.9%,3%,1%,6%
Cc1ccccc1N(C(=O)CNC(=O)c1ccco1)C(C(=O)NC1CCCC1)c1ccncc1 (stereo unspecified),-12%[46.1 µM],.,15%,2%[46.1 µM],.,12%,-3%,-5%
CC(C)c1ccc(/C=N/NC(=O)c2cccc(Cl)c2)cc1,?,-5%,-55%,?,-7.7%,-9%,-19%,-5%
CC(C)(C)c1ccc(-c2nc(SCCOc3ccc(Cl)cc3)n3[nH]c(=O)cc3n2)cc1,.,-12%,0%,3%[46.1 µM],3.5%,.,.,.
COc1ccccc1/C=C1\SC(=O)N(CC(=O)N(C)C2CCS(=O)(=O)C2)C1=O (stereo unspecified),.,.,-4%,.,.,1%,-1%,2%
Cc1ccccc1N1C(=O)c2ccccc2N2C(=O)c3ccccc3C12 (stereo unspecified),-26%,0%,?,-11%,3.6%,-49%,-5%,-6%
Cc1nc(-c2nnc(SCC(=O)Nc3ccc(C(F)(F)F)cc3)n2C)cs1,?,.,-19%,20%,.,2%,1%,-2%
Cn1c(=O)n(C)c2cc(NS(=O)(=O)c3ccc(F)cc3)c(NCc3ccccc3)cc21,16%[46.1 µM],26%,48%[activator],-3%[46.1 µM],-13%,.,.,.
COc1c(Cl)cc(Cl)cc1C(=O)Nc1ccc(C(=O)O)cc1,1%,-3%,0%,-7%,-0.8%,-22%,11%,-18%
CCOc1ccc(-c2nc(C#N)c(NCC(C)C)o2)cc1,5%&5%,17%,-1%,-18%,0.3%,-18%,-5%,-6%[3.69 µM]
Cc1ccc(NC(=O)NCc2cccn2Cc2ccccc2)c(C)c1,.,-7%,-18%,?,0.3%,.,.,.
C=CCc1ccccc1OCC(=O)N/N=C/c1ccccc1OCC,?,-11%,-20%,1%,-9.1%,-23%,-3%,-11%
COc1ccc(-n2cnnc2SCC(=O)Nc2cccc([N+](=O)[O-])c2)cc1,-25%,.,-14%,-2%[46.1 µM],.,.,1%,6%
CCCC(O)(CCC)C(=O)NN(C(=O)CCl)c1cccc(C)c1,?,8%,?,?,1.0%,-5%,-19%,13%
O=C(Nc1ncn[nH]1)C(F)(F)C(F)F,16%,9%,-14%,-2%,3.7%,5%,8%,10%
CCOC(=O)c1c(C)oc2ccc(N(C(=O)Oc3ccccc3)S(=O)(=O)c3ccccc3)cc12,.,-7%,-7%,-21%[46.1 µM],-1.7%,.,.,.
Cc1ccc(OCC(=O)Nc2cc(S(=O)(=O)N3CCCCC3)ccc2N2CCN(C)CC2)c(C)c1,?,.,-4%,-14%,.,.,1%,-6%
Cc1cccc(NC(=O)NNC(=O)c2cc3ccccc3cc2O)c1C,7%[46.1 µM],.,17%,0%,.,.,6%,18%
CCOC(=O)C1=C(C)NC(=O)NC1c1cn(-c2ccccc2)nc1-c1ccc(OC(C)C)cc1 (stereo unspecified),?,20%,-21%,-14%[46.1 µM],-17%,.,.,.
CCc1ccc(C2=CC(c3cc(Br)ccc3F)n3ncnc3N2)cc1 (stereo unspecified),?,?,-13%,2%,-8.3%,-5%,?,8%
CCOc1ccc(S(=O)(=O)N2CCN(S(=O)(=O)c3ccc(C(C)=O)cc3)CC2)cc1,17%[46.1 µM],.,-15%,20%,.,8%,12%,3%
CCc1nnc(NC(=O)c2ccc(-c3cc(C(F)(F)F)ccc3Cl)o2)s1,-3%,-8%,-14%,14%,-3.7%,4%,-2%,12%
CCOC(=O)c1cccc(NC(=O)C(Cc2ccccc2)NS(=O)(=O)c2cccc3nsnc23)c1 (stereo unspecified),?,5%,3%,?,-6.5%,.,.,.
O=C(CCn1c(=O)sc2ccccc21)NCCC1=CCCCC1,0%,-2%,-11%,-31%,-0.5%,-15%,-2%,-8%
COc1ccccc1CCNC(=O)CC1C(=O)NCCN1CCCc1ccccc1 (stereo unspecified),.,.,-12%,.,.,27%,0%,3%
CCOP(=S)(OCC)Oc1cc(C)oc(=O)c1,.,.,-22%,.,.,4%,0%,-12%
Cc1cccc(N2CCN(C(=O)CCC(=O)N3Cc4ccccc4Oc4ncccc43)CC2)c1C,?,.,?,?,.,-31%,23%,8%
CC(CC(=O)Nc1cccnc1)c1ccccc1 (stereo unspecified),7%[46.1 µM],.,-22%,3%[46.1 µM],.,-3%,1%,1%
COc1cccc(/C=C/C(=O)NCc2ccc(S(N)(=O)=O)cc2)c1,-7%[46.1 µM],.,5%,4%,.,-4%,1%,6%
COc1ccc(/C=N\NC(=S)SCN2C(=O)C3CCC(C)(C2=O)C3(C)C)cc1 (stereo unspecified),1%,.,3%,-20%,.,.,.,2%
COc1ccc(C(=O)NC2CCCN(Cc3ccccc3F)C2)c(OC)c1OC (stereo unspecified),?,.,6%,-22%[46.1 µM],.,3%,-9%,-13%
Cc1csc(NC(=O)c2cnc3ccccc3n2)n1,5.6µM*,.,?,?,.,3%,-1%,-5%
Cc1nn(C)c(C(=O)Nc2ccn(C34CC5CC(CC(C5)C3)C4)n2)c1[N+](=O)[O-],?,-2%,?,?,-3.6%,-10%,19%,4%
NC(=O)c1ccsc1NC(=O)CS(=O)(=O)c1ccc(F)cc1,?,.,20%,?,.,.,1%,11%
Cc1cccc(C)c1NC(=O)C1CC2CCC1C2 (stereo unspecified),-2%[46.1 µM],.,-4%,10%[46.1 µM],.,.,.,0%
CCOC(=O)C1CCN(C(=O)c2ccccc2NS(=O)(=O)c2ccc(C)cc2)CC1,-20%,.,36%[activator],1%,.,-7%,2%,-6%
